# Bioassay records deposited in PubChem by National Center for Advancing Translational Sciences (NCATS).
# gsp antag: gsp mutant antagonism; gsp-mutant cells, cAMP HTRF, 30 min; control for the full effect not named in the record; Potency, µM (doses to about 76.9 µM), without a hit: at the top dose activity change, negative = inhibition, usual class: inhibitors; actives 0.4% (n = 340,000); AID 624288; active = falling curve of any shape with a large fitted effect; inconclusive = falling curve, mostly with a smaller effect; inactive = flat or rising curve; cell line not stated here;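 note: intracellular cAMP measured with PDE inhibitor Ro 20-1724 present during compound exposure; potency is the fitted concentration of half-maximal effect; % is set by controls: 0 for no effect and ±100 for the full control effect; nearly all actives have a fitted effect of over 65% in size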
#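 Measurement of cellular cAMP by homogeneous time-resolved fluorescence following a 30 min compound exposure at 37C. The PDE inhibitor […] was present throughout; the assay buffer was DPBS with 0.05% BSA and 0.005% Tween 20.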
# Menin-MLL FL inh: inhibitors of human menin-MLL interaction, wild-type MLL peptide | Fluorescence polarization, fluorescein-MLL peptide displacement from menin | FP activity change, % at 61.4 µM | 290,000 tested, under 10 active | AID 1766; inconclusive = falling polarisation curve, or a change in total fluorescence; inactive = total fluorescence flat and polarisation flat or rising; no compound was filed as active; the % refers to the polarisation; negative = inhibition;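 note: % of control where 0% means no effect; inhibitors lower the polarisation; unlabelled MLL peptide was the positive control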
# TRPML1 blocker: blocks the human TRPML1 channel; activity change, negative = inhibition, % (concentration not given with the values); Q9GZU1; actives 0.02% (n = 390,000); TRPML1-inducible cells, Ca2+ dye fluorescence, FDSS; active compounds read low; inhibition of EC80 agonist-evoked calcium signal; in the data active means activity change below about -50%; inconclusive means about -30% to -50%; inactive means above about -30%;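 note: stimulus is agonist 54-4 at its EC80 concentration; % is set by controls: 0 for no effect and ±100 for the full control effect; the text of the record puts the active cut at -80%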
# Target sequence (Q9GZU1 whole entry, looked up): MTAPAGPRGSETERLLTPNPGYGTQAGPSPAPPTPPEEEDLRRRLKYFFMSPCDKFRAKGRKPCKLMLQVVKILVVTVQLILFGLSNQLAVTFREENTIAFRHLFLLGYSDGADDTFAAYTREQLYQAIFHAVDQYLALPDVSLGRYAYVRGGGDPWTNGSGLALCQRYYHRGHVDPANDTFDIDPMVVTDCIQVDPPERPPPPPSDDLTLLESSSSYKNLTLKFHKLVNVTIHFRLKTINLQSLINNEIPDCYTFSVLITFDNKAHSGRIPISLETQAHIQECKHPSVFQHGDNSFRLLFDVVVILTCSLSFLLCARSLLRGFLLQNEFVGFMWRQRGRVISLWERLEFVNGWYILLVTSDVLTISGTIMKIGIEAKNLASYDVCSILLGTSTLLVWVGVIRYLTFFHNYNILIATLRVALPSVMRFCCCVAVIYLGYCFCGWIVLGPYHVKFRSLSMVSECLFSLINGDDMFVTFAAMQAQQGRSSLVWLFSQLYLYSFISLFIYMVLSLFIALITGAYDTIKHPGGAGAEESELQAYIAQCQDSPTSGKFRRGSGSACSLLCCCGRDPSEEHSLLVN
#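 Calcium fluorescence in TRPML1-DL cells induced overnight with Tet: a 110 s read after compound pin addition, then a 110 s antagonist read after challenge with 54-4 at 4 uM final (EC80).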
# gsp agonist: agonists of gsp mutant (McCune-Albright syndrome); gsp mutant cells, cAMP HTRF, 30 min; control for the full effect not named in the record; Potency, µM (doses to about 76.9 µM), inactives show at the top dose activation (cAMP increase), usual class: activators; actives 0.13% (n = 340,000); AID 624287; active = well fitted activation curve with a large enough effect; inconclusive = small, poorly fitted or top-dose-only effect, or another doubt; inactive = no such curve, though single readings can be large or run the other way; cell line not stated here;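 note: phosphodiesterase inhibitor Ro 20-1724 added with compounds to block cAMP breakdown; potency is the fitted concentration of half-maximal effect; nearly all actives have a fitted effect of over 60% in size; about a fifth of the inactives were tested at one dose only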
#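 Cells stably selected in G418 were plated at 2000/well, grown 16-24 hr, then given compounds in DMSO with the PDE inhibitor […] (300 uM solution added) for 30 min at 37C; cAMP was read by HTRF.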
# ClpP mod: qHTS Assay for Activators of ClpP. purified B. subtilis ClpP, FRET peptide cleavage, 20 min. Potency, µM (top dose mostly 57.5 µM), for the others: at the highest dose activity change, negative = active. actives 1.9% (n = 340,000); active = well fitted falling curve with a large enough effect; inconclusive = small, poorly fitted or top-dose-only effect; inactive = no such curve, though single readings can be large or run the other way; note: potency is the fitted concentration of half-maximal effect; the source files actives as falling curves though it sought activators and does not explain the sign; nearly all actives have a fitted effect of over 65% in size; many hits overshoot -100%
# Target sequence (P80244 whole entry, looked up): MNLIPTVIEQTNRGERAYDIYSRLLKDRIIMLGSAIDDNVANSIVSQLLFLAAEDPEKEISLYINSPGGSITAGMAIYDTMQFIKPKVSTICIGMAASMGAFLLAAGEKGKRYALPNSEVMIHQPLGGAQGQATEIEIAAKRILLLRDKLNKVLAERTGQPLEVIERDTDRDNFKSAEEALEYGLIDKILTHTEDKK
#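 ClpP 10 microg/mL final, pH 8 Tris/KCl buffer with BSA, glycerol, Tween-20; compound pinned in; FRET-FV substrate; RT 20 min; Ex320/Em430; ΔFRET vs ADEP 5.8 microM, DMSO, no enzyme.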
# TRPML1 agonist: agonists of human TRPML1 channel; Q9GZU1; TRPML1-expressing cells, Ca2+ dye fluorescence, FDSS; host cell line not named in the record; reference of the full effect not given here; activation, % (test concentration not listed); actives 0.12% (n = 410,000); in the data active = activation above about 50%; inconclusive = about 30% to 50%; inactive = below about 30%; note: 0% is about no effect; the text of the record puts the active cut at 80%
#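 Cells: TRPML1-DL, 1X Tet inducer, ~16 h at 37 degrees C/5% CO2. Dye: ABD Ca8 no-wash + quencher, 45-90 min RT. Read: 10 s baseline, compound add, 110 s agonist phase; 54-4 EC80 (4uM final), 110 s antagonist phase.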
# Active calls of the source: *; ? = inconclusive; . = no result given; [ ] = dose if it differs, or a comment.
SMILES,gsp antag,Menin-MLL FL inh,TRPML1 blocker,gsp agonist,ClpP mod,TRPML1 agonist
CCCCC1=CC2=C(c3ccco3)C(=O)C(C)(OC(=O)c3ccc(OC)cc3)C(=O)C2=CN1CC1CC1 (stereo not drawn),-4%,0.1[11.7 µM],17,.,-0.4%,1.4
Cc1ccc(CSc2nnc(C)c(=O)[nH]2)cc1,-21%,-6.7,5,-4%,-5.0%,0.9
COc1ccc(CCNC(=O)COC(=O)c2ccc([N+](=O)[O-])o2)cc1,12%,.,15,-9%,0.9%,0.0
CCN(CCCn1c(SCC#N)nc2ccccc2c1=O)c1ccccc1,-10%,-4.3,-7,-14%,-2.1%,-1.2
COC(=O)c1ccc(Nc2nc(C)nc3c2nnn3Cc2ccccc2)cc1,0%,1.3,3,-57%[inhibitor],.,-0.2
Nc1ncnc2nc(SCCN3CCCCC3)[nH]c12,7%,-0.3,-9,3%,2.9%,-0.7
C=C(C)CNC(=S)NNC(=O)c1cc(C)oc1C,18%,5.6,-5,23%,1.6%,1.0
Cc1ccc(NC(=O)CN2CCc3ccccc3C2)cc1C,2%,0.3,-4,-17%,0.3%,1.3
CCC(Cc1ccccc1)NS(=O)(=O)c1ccc2c(c1)NC(=O)CO2 (stereo not drawn),7%,.,0,-28%,0.4%,-1.1
Cc1ccc(-c2nnn(CC(=O)N3c4ccccc4CCc4ccccc43)n2)cc1,-8%,2.0,5,-34%[inhibitor],0.2%,0.3
COc1ccc(OCC(=O)Nc2ccccc2C(=O)N2CCOCC2)cc1,9%,6.3,-27,-9%[15.4 µM],-4.0%,-1.1
COCCCC1CCN(C(=O)C2CCC(=O)N(C3CCCCCC3)C2)CC1 (stereo not drawn),-4%,.,-6,-72%[inhibitor],0.9%,0.1
Cc1noc(C(=O)Nc2ccccc2C(F)(F)F)c1Cl,9%,7.9,-3,0%,-1.1%,1.5
CC(C)(Oc1ccc(Cl)cc1)C(=O)NCC(c1cccs1)N1CCOCC1 (stereo not drawn),-21%,.,-5,5%,-1.1%,-1.2
Cc1ccc(Cn2cc(CCC(=O)NC3CCC(C)CC3)c3ccccc32)cc1 (stereo not drawn),.,.,-9,.,-11%,1.2
COC(=O)CNC(=O)Cc1c(C)n(C(=O)c2ccc(Cl)cc2)c2ccc(OC)cc12,?,.,-20,-35%[inhibitor],-3.1%,0.9
Clc1cccc(Cl)c1Cn1ccc(C2CC2)n1,-14%,-4.7,-18,13%[15.4 µM],.,0.0
CC(=O)Nc1ccc(NC(=O)COc2ccc(S(=O)(=O)NC(C)c3ccccc3)cc2)cc1 (stereo not drawn),-16%,-4.1,10,0%,.,0.0
CN1C(=O)c2ccccc2Sc2ccc(NC(=O)N3CCOCC3)cc21,1%,0.4,-8,-3%[15.4 µM],.,-0.6
COc1ccccc1Cc1nc2ccccc2nc1SCC(=O)N1CCCc2ccccc21,.,.,-12,.,-1.2%,0.1
Cc1cc(=O)oc2c1c(C)nn2-c1ccc(Cl)cc1,6%,-0.3,5,-11%[15.4 µM],.,0.4
COc1ccc(NC(=O)COC(=O)c2ccc(OC)c(S(=O)(=O)N3CCCC3)c2)cc1OC,5%,.,-11,-25%,1.5%,1.0
CCOC(=O)CSc1nc(-c2cccs2)nc2c1c(=O)n(C)c(=O)n2C,-10%,-3.2,-11,-13%,?,-0.7
COc1ccc(N(CC(=O)N2CCCC2)S(=O)(=O)c2ccc(NC(C)=O)cc2)cc1,3%,-3.3,-5,-3%[15.4 µM],-1.7%,-0.1
CCC(Oc1ccccc1F)C(=O)NCCCn1ccnc1 (stereo not drawn),-2%,-8.5,-8,0%,.,1.0
O=C(CN1C(=O)COc2ccc(S(=O)(=O)Nc3ccccc3)cc21)Nc1cccc(Cl)c1,.,.,-10,.,-0.4%,0.4
CCS(=O)(=O)N1CCC(C(=O)Oc2ccc(C(=O)OC)cc2)CC1,-3%,-1.9,2,-1%,.,-0.4
CCOC(=O)c1ccc(NC(=S)N(CCCN2CCN(CC)CC2)Cc2ccco2)cc1,0%,0.3,-3,20%[15.4 µM],-2.1%,0.6
CCOc1ccccc1CN1CCNC(=O)C1CC(=O)NCCC1=CCCCC1 (stereo not drawn),-1%,0.6,9,16%,-4.4%,-0.1
Cc1ccc(OCCCCN2CCCC(C)C2)c([N+](=O)[O-])c1 (stereo not drawn),17%,-1.7,7,7%[15.4 µM],.,0.6
Cc1c2ccccc2nc2ccccc12,5%,.,33,-13%[15.4 µM],0.6%,4.4
CC(=O)N1C(=O)N(C(C)=O)C2C1N(C(C)=O)C(=O)N2C(C)=O (stereo not drawn),4%,0.3,1,-32%[inhibitor],0.7%,0.8
CC(C)COc1ccc(C(=O)N/C(=C\c2cccc([N+](=O)[O-])c2)C(=O)OC(C)C)cc1,0%[15.4 µM],-0.7,-1,10%,1.9%,0.3
CCC1(C)SC(NC(C)=O)=NN1C(C)=O (stereo not drawn),.,-0.6,-6,0%[15.4 µM],.,1.0
O=C(Nc1ccc(S(=O)(=O)N(Cc2ccccc2)c2ccccc2)cc1)c1ccccc1F,.,.,-16,.,-21%,0.5
Fc1ccccc1CCNc1nnnn1-c1ccccc1,-6%,4.4,9,-25%,-3.5%,0.4
CC(=O)C1C(c2ccccc2)c2c(n[nH]c2C)CC1(C)O (stereo not drawn),9%,0.3,4,-52%[inhibitor],1.1%,-0.2
CC(=O)Nc1ccc(SCC(=O)N(C)C2CCS(=O)(=O)C2)cc1 (stereo not drawn),6%,-0.6,19,2%,.,-0.1
Cn1c(=O)c2sccc2n2c(CCCC(=O)Nc3ccc(F)c(F)c3)nnc12,.,.,-4,.,-1.3%,2.3
O=C(CSc1cccc2cccnc12)Nc1ccc(S(=O)(=O)N2CCOCC2)cc1,11%,5.9,-4,34%[15.4 µM],.,-0.5

# Shown field by field: entries from further up
CCC(Oc1ccccc1F)C(=O)NCCCn1ccnc1 (stereo not drawn)
- gsp antag: -2%
- Menin-MLL FL inh: -8.5
- TRPML1 blocker: -8
- gsp agonist: 0%
- ClpP mod: .
- TRPML1 agonist: 1.0

CC(=O)C1C(c2ccccc2)c2c(n[nH]c2C)CC1(C)O (stereo not drawn)
- gsp antag: 9%
- Menin-MLL FL inh: 0.3
- TRPML1 blocker: 4
- gsp agonist: -52%[inhibitor]
- ClpP mod: 1.1%
- TRPML1 agonist: -0.2

CC(=O)N1C(=O)N(C(C)=O)C2C1N(C(C)=O)C(=O)N2C(C)=O (stereo not drawn)
- gsp antag: 4%
- Menin-MLL FL inh: 0.3
- TRPML1 blocker: 1
- gsp agonist: -32%[inhibitor]
- ClpP mod: 0.7%
- TRPML1 agonist: 0.8

# The main list resumes, starting 3 compounds before the break.
SMILES,gsp antag,Menin-MLL FL inh,TRPML1 blocker,gsp agonist,ClpP mod,TRPML1 agonist
CC(=O)Nc1ccc(SCC(=O)N(C)C2CCS(=O)(=O)C2)cc1 (stereo not drawn),6%,-0.6,19,2%,.,-0.1
Cn1c(=O)c2sccc2n2c(CCCC(=O)Nc3ccc(F)c(F)c3)nnc12,.,.,-4,.,-1.3%,2.3
O=C(CSc1cccc2cccnc12)Nc1ccc(S(=O)(=O)N2CCOCC2)cc1,11%,5.9,-4,34%[15.4 µM],.,-0.5
CC1CCN(C(=O)CCNS(=O)(=O)c2ccc3c(c2)c(=O)n(C)c(=O)n3C)CC1,-11%,1.2,37,24%,-10%,-0.4
COc1ccc(NC(=O)C(C)N2Cc3ccccc3C2=O)cc1OC (stereo not drawn),.,.,29,.,-1.7%,-0.2
COC(=O)c1cc(S(=O)(=O)NCCc2cccc(C)c2)cn1C,-1%,.,-8,-8%,.,0.8
CN(C)c1cccc(C(=O)NNC(=O)CN2C(=O)C3CC=CCC3C2=O)c1 (stereo not drawn),-4%,.,9,-5%,.,-0.3
Cc1ccc(NC(=O)c2nc(S(C)(=O)=O)ncc2N(Cc2ccco2)Cc2cccs2)cc1C,.,.,-7,.,-5.3%,0.2
CCOc1cc(/C=N\NC(=O)C2C(=O)NCC2c2ccccc2)ccc1OC (stereo not drawn),-6%,7.6,-14,-1%,-13%,-0.4
CCOc1ccc(-c2cnc(N)n2C)cc1,10%,-0.8,-9,-20%,-2.5%,1.1
O=C(/C=C/Nc1ccc(Oc2ccccc2Cl)cc1)c1ccco1,-8%,4.7,-2,16%,.,0.2
O=[N+]([O-])c1ccccc1NCc1c(O)ccc2ccccc12,-24%,-6.0,2,29%,1.9%,0.1
Cc1cccc(OCC(=O)NCC2CCCO2)c1C (stereo not drawn),6%,-11,-2,-11%,-1.0%,3.5
Cc1ccc(C(=O)NCCCNC(=O)c2ccc(Cl)cc2)cn1,-1%,-6.0,-4,-18%[15.4 µM],.,-0.3
NC(=O)[C@@H]1CCCN1C(=O)c1ccc2nc(Cc3ccccc3F)oc2c1,5%,.,63,2%,-1.0%,-0.6
CCC(C(=O)Nc1ccc(C(C)C)cc1)c1ccccc1 (stereo not drawn),-2%,-5.1,-8,-5%[15.4 µM],.,?
COc1ccc(Cl)cc1S(=O)(=O)N1CCN(Cc2ccc3c(c2)OCO3)CC1,-9%,-0.5,-8,?,-0.4%,-0.7
Cc1ccc(N=C2C(=O)Nc3ccccc32)cc1C,7%,-5.6,-20,1%[15.4 µM],-1.7%,0.2
COc1ccc(Nc2cccc3ccccc23)cc1,-10%,.,32,.,-23%,-1.2
CCCc1nn(C)c2c(=O)[nH]c(-c3cc(S(N)(=O)=O)ccc3OCC)nc12,4%,-6.6,-1,?,?,3.5
Cc1csc(=O)n1CCC(=O)OCC(=O)NNC(=O)c1ccc(Br)cc1,-2%,.,-2,?,-1.8%,-0.5
COc1ccc(CCN2C(=O)N(c3ccc(F)cc3)C(=O)C2CC(=O)Nc2ccc(OC)cc2)cc1 (stereo not drawn),.,.,-1,.,0.3%,0.0
CCCNc1ncnc2c1c(-c1ccccc1)cn2-c1ccccc1,.,.,3,.,-16%,1.1
Cc1ccc(C)c(NC(=O)Cn2c(-c3nonc3N)nc3ccccc32)c1,.,.,-24,.,0.2%,-0.2
Cc1cc(C)c2c(n1)nn1c(C)c(CCC(=O)NCc3ccc(Cl)cc3)c(C)nc21,.,.,1,.,?,0.5
COc1ccc(C(=O)O/N=C/c2c(C(F)(F)F)nn(C)c2SCc2ccccc2Cl)cc1,-12%,-0.2,41,14%,-1.2%,1.0
O=C(c1cc2ccccc2oc1=O)N1CCN(CCc2ccccc2)CC1,-1%,-4.5,1,6%,-9.3%,0.9
COc1ccc(S(=O)(=O)NCC(c2ccco2)N2CCOCC2)cc1OC (stereo not drawn),.,.,-13,.,-1.3%,-0.5

# Shown field by field: 2 of the compounds above.
Cc1cc(C)c2c(n1)nn1c(C)c(CCC(=O)NCc3ccc(Cl)cc3)c(C)nc21
  gsp antag: .	Menin-MLL FL inh: .	TRPML1 blocker: 1	gsp agonist: .	ClpP mod: ?	TRPML1 agonist: 0.5
COc1ccc(C(=O)O/N=C/c2c(C(F)(F)F)nn(C)c2SCc2ccccc2Cl)cc1
  gsp antag: -12%	Menin-MLL FL inh: -0.2	TRPML1 blocker: 41	gsp agonist: 14%	ClpP mod: -1.2%	TRPML1 agonist: 1.0
